# Vaccinia pol inh: inhibitors of vaccinia virus processive DNA synthesis (E9 polymerase). normalized absorbance, % (no concentration beside the values). in vitro processive DNA synthesis, absorbance read-out; stronger effect = lower value; some inactives read as strong as hits. actives 0.94% (n = 46,000);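 active = replicate mean up to 90% and picked by the depositor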;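 note: 100% = median of the test wells of a plate; 100 nL library stock went into each well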
# An asterisk follows results filed as active. This is a subset (hit frequency here may not be typical).
SMILES,Vaccinia pol inh
CCN(CC)c1ccc(/C=N/O)c(O)c1,98
O=S(=O)(Nc1ccc(Cl)c(C(F)(F)F)c1)c1cnc[nH]1,100
O=C(O)Cn1c(-c2ccc(Br)cc2)nc(=S)c2c1CCCC2,100
COC(=O)c1cc2sccc2n1C(C)C(=O)N1CCCc2ccccc21 (centres undefined),106
CCN1CCN(CCNC(=O)Nc2ccccc2C)CC1,93
CC(C)C(=O)NCCSc1c[nH]c2ccccc12,100
CCOC(=O)CC(=O)Nc1nc2ccccc2s1,90
CCOc1cc(CCn2cnc3c([nH]c4ccc(C)cc43)c2=O)ccc1OC,99
Cc1sc2nc(-c3ccccc3O)[nH]c(=O)c2c1C,100
CC(=O)N1CCN(CCN=CC2=C(O)CC(c3ccccc3)CC2=O)CC1 (centres undefined),100
COc1ccc2nc(NC(=O)/C=C/c3cccs3)sc2c1,99
O=C(CSc1cn(CC(=O)N2CCOCC2)c2ccccc12)NCc1ccco1,102
O=C1CSc2ccc(C(=O)NCC3COc4ccccc4O3)cc2N1 (centres undefined),96
COc1ccc(-n2c(NN)nc3sc4c(c3c2=O)CCC4)cc1,98
CCNc1nc(N2CCOCC2)nc(N2CCC(Cc3ccccc3)CC2)n1,100
N#Cc1ccccc1NC(=O)COC(=O)Cc1ccc(Br)cc1,98
COc1cc(NC(=O)c2ccc(CSC3CCCCC3)cc2)cc(OC)c1OC,101
O=C(NC1CCCC1)C1CCCN(S(=O)(=O)c2cccc3cccnc23)C1 (centres undefined),94
CCOC(=O)c1ccc2nc(C(F)(F)F)nc(N3CC(C)OC(C)C3)c2c1 (centres undefined),106
Cn1ccnc1C(=O)c1cc(Cl)nc2ccccc12,97

# Rewritten as tab-separated lines: two of the compounds above.
SMILES	Vaccinia pol inh
CCNc1nc(N2CCOCC2)nc(N2CCC(Cc3ccccc3)CC2)n1	100
N#Cc1ccccc1NC(=O)COC(=O)Cc1ccc(Br)cc1	98

# Later entries:
SMILES,Vaccinia pol inh
CC(c1ccn[nH]1)n1cncn1 (centres undefined),89
N#CC1(N2CCN(C3(C#N)CCCC3)CC2)CCCC1,100
Cc1ccc(-c2nn(C)c(=O)c3ccccc23)cc1CNC(=O)Nc1ccccc1,100
COc1cc(NC2c3ccccc3C(=O)N2c2cc(C)ccn2)cc(OC)c1OC (centres undefined),96
FC(F)(F)c1ccccc1CNCCc1c[nH]c2ccccc12,102
O=C(Cc1cccs1)Nc1cccc(C(=O)Nc2ccco2)c1,101
CCC(=O)c1ccc(OC)cc1OC,103
O=C1CCN(S(=O)(=O)c2ccc(Cl)cc2)CC1,96
CC1(C)C(=O)N(c2ccccc2)C(=O)c2ccccc21,97
O=C(O)C1CNC(=O)N1C(=O)OCc1ccccc1 (centres undefined),109
c1cn2c3c(n1)CCCc3c1cc(C3CCCCC3)ccc12,101
N#CCCN1c2ccccc2Sc2ccc(Cl)cc21,98
Cc1cc(/C=C2/NC(=O)N(Cc3ccccc3F)C2=O)c(C)n1-c1ccc(S(N)(=O)=O)cc1,100
NC(=O)CSc1nnc(Cc2cc(=O)[nH]c(=O)[nH]2)n1-c1ccccc1,102
COC(=O)c1c(-n2cccc2)sc(C)c1C,94
CCC1CCCCN1C(=O)COC(=O)c1ccc(Br)o1 (centres undefined),110
Cc1cccc(NC(=O)CSc2ncnc3c2oc2ccccc23)c1C,102
O=C(NCSc1ncccn1)c1ccccc1,105
CC(C)(C)C(=O)C[n+]1cccc(C(N)=O)c1,101
N#Cc1c(F)cccc1NCCc1ccccn1,109

# A portion taken from the entries so far, for reference:
SMILES,Vaccinia pol inh
Cc1ccc(-c2nn(C)c(=O)c3ccccc23)cc1CNC(=O)Nc1ccccc1,100
COc1cc(NC2c3ccccc3C(=O)N2c2cc(C)ccn2)cc(OC)c1OC (centres undefined),96
FC(F)(F)c1ccccc1CNCCc1c[nH]c2ccccc12,102
O=C(Cc1cccs1)Nc1cccc(C(=O)Nc2ccco2)c1,101
CCC(=O)c1ccc(OC)cc1OC,103
O=C1CCN(S(=O)(=O)c2ccc(Cl)cc2)CC1,96
CC1(C)C(=O)N(c2ccccc2)C(=O)c2ccccc21,97
O=C(O)C1CNC(=O)N1C(=O)OCc1ccccc1 (centres undefined),109
c1cn2c3c(n1)CCCc3c1cc(C3CCCCC3)ccc12,101
N#CCCN1c2ccccc2Sc2ccc(Cl)cc21,98
Cc1cc(/C=C2/NC(=O)N(Cc3ccccc3F)C2=O)c(C)n1-c1ccc(S(N)(=O)=O)cc1,100
NC(=O)CSc1nnc(Cc2cc(=O)[nH]c(=O)[nH]2)n1-c1ccccc1,102
COC(=O)c1c(-n2cccc2)sc(C)c1C,94
CCC1CCCCN1C(=O)COC(=O)c1ccc(Br)o1 (centres undefined),110
Cc1cccc(NC(=O)CSc2ncnc3c2oc2ccccc23)c1C,102
O=C(NCSc1ncccn1)c1ccccc1,105
CC(C)(C)C(=O)C[n+]1cccc(C(N)=O)c1,101
N#Cc1c(F)cccc1NCCc1ccccn1,109

# Next part:
SMILES,Vaccinia pol inh
COC(=O)CSc1nnc(-c2ccccc2)o1,100
COc1ccc(-c2cc3ccccn3c2C(=O)c2cccnc2)c(OC)c1,44*
NC(=O)c1nnc2ccc(Cl)cc2c1N,77
c1csc(-c2cnc3n2CCCC3)c1,102
CN(C)C(=N)c1n[nH]nc1SCc1ccccc1,100
N#Cc1c(-c2ccc3c(c2)OCO3)cc(-c2ccccc2)nc1N,104
O=C(O)CCC(=O)Nc1cc(C(F)(F)F)ccc1N1CCCC1,101
O=S(=O)(Nc1ccc(O)cc1)c1cc(Br)ccc1Br,102
C=CCn1c2ccccc2c2nnc(SCc3ccc4nonc4c3)nc21,100
O=C(OCC(=O)N1CCCCC1)c1ccccc1O,98
Cc1cc(C(F)(F)F)nc2c(Br)c(C(C)(C)C)nn12,84
CC1(CC(=O)Nc2ccccc2)NN=C(c2ccccc2)S1 (centres undefined),102
CC1CC(C)CN(S(=O)(=O)c2ccc3c(c2)oc(=O)n3CC(=O)NC(C)c2ccccc2)C1 (centres undefined),94
COc1cccc(CC(=O)OCC(=O)c2cccc(Cl)c2)c1,86
O=C(c1ccc2c(c1)ncn2C1CCCCC1)n1ccnc1,102
Cc1ccc2c(c1)cc1c(=O)n(CC(=O)N3CCCC3)nc(C)n12,102
CN1C(=O)S/C(=C/c2ccccc2OCc2ccc(C(=O)O)cc2)C1=O,100
CCOC(=O)c1sc(Nc2ccccc2)nc1C,98
O=C(CC1(O)C(=O)Nc2ccccc21)c1ccc2ccccc2c1 (centres undefined),101
O=C(CSc1ccccn1)C12CC3CC(CC(C3)C1)C2,101
O=C(CSC1=NCCS1)N1CCC(Cc2ccccc2)CC1,100
COc1ccccc1CNC(=O)c1ccc2c(SCC(=O)O)c3c(nc2c1)CCCC3,105
CC(C)(C)C1=N/C(=C\c2ccccc2)C(=O)O1,102
C(CC1CCNCC1)CC1CCNCC1,100
CC(=O)ON1C(C)(C)C=C(C(N)=O)C1(C)C,100
C=CC[n+]1ccsc1N,101
Cc1cc(NC(=O)C2CCCC2)nc2c1c(=O)oc1ccccc12,101
CC1ON(c2ccc(Br)cc2)C(=O)NC1=O (centres undefined),101
O=C1CNC(=O)N1/N=C/c1cccc2ccccc12,100
Cc1nnc2n(-c3ccccc3)c(=O)c3ccccc3n12,101
Cc1cc(=O)oc2cc(OCC(=O)NCc3ccc(Cl)cc3)ccc12,102
O=C(c1ccccc1)c1cccn1CC(=O)N1CCCC1,99
Cc1c(NC(=O)c2ccccc2)c(=O)n(-c2ccccc2)n1C,100
CCOC(=O)c1c(-c2ccccc2)csc1NC(=O)C1CC1,98
Oc1ccc(CNc2cccc(C(F)(F)F)c2)c2cccnc12,110
CCCN(C(=O)c1ccc2c(=O)n3c(nc2c1)CCCC3)c1ccc(Cl)c(Cl)c1,94
Cc1ccc(C)n1-n1cnnc1,103
CCOC(=O)NC1CCS(=O)(=O)C1 (centres undefined),91
CCOc1ccccc1-n1c(SCC(=O)c2ccc3c(c2)OCCO3)nc(O)cc1=O,100
Cc1ccccc1NC(=O)CC(NCc1ccccc1)C(=O)O (centres undefined),103
Cc1oc2c(c1C(=O)NC1CCCC1)C(=O)c1ccccc1C2=O,110
O=C(NCC1CCN(C2CCCC2)C1)c1cnn2ccccc12 (centres undefined),96
CC(N)C12CC3CC(CC(C3)C1)C2 (centres undefined),99
Cc1ccc(-n2c(C)c3c(C)nnc(C)c3c2C)cc1,105
CCc1ccc(N2C(=O)Nc3ccccc3N2O)cc1,100
CC1CCC(C2NC(=O)c3ccccc3O2)CC1 (centres undefined),85
[O-]/C(=C(\C(=S)Nc1ccccc1)[n+]1ccccc1)c1ccccc1,100
COC(=O)C1=C(O)CSC1=Nc1cccc(C(F)(F)F)c1,99
O=C(Sc1nc(-c2ccccc2)c(-c2ccccc2)[nH]1)c1cccs1,99
COc1ccc(C2C(C(=O)N3CCCCC3)c3ccccc3C(=O)N2c2ccc(OC)cc2)cc1 (centres undefined),110
O=C1OCC(c2ccc(Cl)s2)=C1c1cccs1,91
COc1ccccc1-n1cnc2cc(N=Cc3ccccc3O)ccc21,99
COc1ccc(C2C(Oc3ccc(Cl)cc3C)C(=O)N2c2ccc(C)c(C)c2)cc1OC (centres undefined),100
CO/C=C(/Oc1ccc(Cl)cc1Br)C(=O)OC,108
Cn1c(SCc2nc3ccccc3s2)nnc1-c1ccncc1,104
Cc1cc(NC(=O)c2ccc3c(c2)NC(=O)c2ccccc2S3)ccc1Br,100
CC(CN1CCCCC1)C(=O)NN (centres undefined),105
Cc1ccccc1NS(=O)(=O)Cc1ccccc1,98
CCOC(=O)CN1C(=O)CC(C[C@@H](O)C2C[C@@H](C)C[C@H](C)C2=O)CC1=O (some centres undefined),98
Cc1cc(=O)n(-c2ccccc2)n1C,100
# Later entries.
SMILES,Vaccinia pol inh
O=C(O)c1ccc(CNCc2ccc(Cl)cc2)cc1,99
N#Cc1ccc(C(=O)N2CCN(c3ccccc3)CC2)cc1,100
Cc1ccc(CCNc2ccccc2)cn1,101
COc1cccc2s/c(=N/C(=S)NC(=O)c3ccc(C)cc3)n(C)c12,100
Cc1ccc(C(=O)Nc2cc3ccccc3oc2=O)cc1,100
O=C(O)C1CCCN(c2ncnc3c2sc2cccc(F)c23)C1 (centres undefined),90
CCn1c(-c2cc(C)n(C)n2)n[nH]c1=S,101
CC1Cc2ccccc2N1C(=O)c1ccc(S(=O)(=O)N2CCCCC2)cc1 (centres undefined),112
COc1cccc(N2CCN(C(=O)c3cc4c(Cl)nc5ccc(C)cc5c4s3)CC2)c1,97
COC(=O)/C=C1\S/C(=N\c2ccccn2)N(c2ccc(Cl)cc2)C1=O,105
CC1CCCCN1CCNC(=O)Cn1ncc2c1-c1ccccc1OC2 (centres undefined),103
CCC(C)NC(=O)c1cc(C(=O)c2ccccc2)c[nH]1 (centres undefined),94
COc1cccc(C2CC(c3cccs3)=NN2C(=O)CSc2nncn2C)c1OC (centres undefined),100
CC(C)(C)c1ccc2c(c1)CN(c1cccc(C(=O)O)c1)CO2,101
O=C1C2CCN(CC2)C1(CO)CO,99
Oc1c(C(Nc2ccccc2)c2ccccn2)ccc2cccnc12 (centres undefined),100
O=C1CCCC2=C1C(c1cccc3ccccc13)C1=C(CCCC1=O)N2,106
COc1ccc(Nc2ncc(-c3cc4cc(OC)ccc4oc3=O)s2)cc1,102
CC(C)(C)S(=O)(=O)/C(C#N)=C/N1CCN(C(c2ccccc2)c2ccccc2)CC1,94
CC1(C)S[C@@H]2[C@H](NC(=O)COc3ccccc3)C(=O)N2[C@H]1C(=O)O,99
COc1ccc(NC(C)=S)cc1C,100
O=C(COc1ccc2oc3c(c2c1)CCCC3)Nc1ccncc1,107
O=C(CCc1ccccc1)N1CCN(c2ccccc2)CC1,101
COc1ccc(OCCn2cc(C(=O)C(C)(C)C)c3ccccc32)cc1,99
CCC(C)NC(=O)c1ccc2c(=O)n(Cc3ccc(OC)cc3)c(=O)[nH]c2c1 (centres undefined),92
CCOC(=O)c1cnc(SCc2c(C)cc(C)cc2C)nc1C(F)(F)F,92
CN(C)C(=O)C12CC3CC(CC(C3)C1)C2,98
CN(CCC#N)c1ccc(/C=C2\CC/C(=C\c3ccc(N(C)CCC#N)cc3)C2=O)cc1,94
O=c1cc(CSc2nnnn2-c2ccccc2)[nH]c2[nH]n(-c3ccccc3)c(=O)c12,108
Cc1ccccc1C1CC(=O)c2c(ccc3ccccc23)N1 (centres undefined),99
CC1CN(c2nc(C(F)(F)F)cc(=O)[nH]2)CC(C)O1 (centres undefined),101
O=C(NCCC1=CCCCC1)c1cc(-c2ccccn2)nc2ccccc12,101
CCN(CC)S(=O)(=O)c1ccc(O)cc1,96
O=c1[nH][nH]c(=O)c2c(N=Cc3cccc4ccccc34)cccc12,96
COc1ccc(-c2coc3cc(O)cc(O)c3c2=O)cc1,100
CC(=C\c1ccccc1)/C=C1/SC(=S)N(C2CCCCC2)C1=O,100
Cc1ccc(C(=O)NC(C)C(=O)NC2CCCCC2)cc1 (centres undefined),97
CC(O)(C#CCN1CCCCC1)C1CC1 (centres undefined),100
COc1ccccc1N1CCN(S(=O)(=O)c2ccc(Cl)s2)CC1,94
Cn1ccnc1SCc1cc(=O)[nH]c2ccccc12,98
CN(C)/C=C1\N=C(c2cccnc2Sc2ccc(Cl)cc2)OC1=O,110
CC(=O)Nc1nonc1NC(=O)C12CC3CC(CC(C3)C1)C2,106
CC(=O)Nc1ccc(C(=O)NN)cc1,100
O=C1CC(c2cccs2)Sc2nc3ccccc3n21 (centres undefined),88
CC1CN=C(N(C(=O)Nc2ccc(Cl)cc2)C(C)c2ccccc2)S1 (centres undefined),98
COc1ccc(-c2cc(C(F)(F)F)nc(SC3CC(O)C4OCC3O4)n2)cc1OC (centres undefined),99
COc1cccc(CNC(C)C23CC4CC(CC(C4)C2)C3)c1OCc1cccs1 (centres undefined),101
Cc1n[nH]c(C)c1CCCOc1ccccc1,96
CCn1c(SCC(=O)c2ccccc2)nnc1-c1cccs1,102
O=C1OC2(CCCCC2)OC(=O)C1=CNc1ccc(Cl)cc1C(F)(F)F,102
c1ccc(CSc2nnc(-c3ccco3)n2-c2ccccc2)cc1,100
CC(OC(=O)c1cccs1)C(=O)Nc1cccc(Cl)c1Cl (centres undefined),100
O=C(OCC(=O)N1CCCC1)c1ccccc1OCc1ccccc1Cl,103
NNc1nc2cc(Cl)ccc2nc1Cl,100

# Compound activity from PubChem BioAssay.
